# AF4-AF9 inh – blocks AF4 peptide binding to human AF9 | 0.47% of 350,000 active | AlphaScreen, biotin-AF4 peptide binding to FLAG-AF9 | inhibition, % at 10 µM;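 active means every replicate reaching a set inhibition limit, whatever the replicate mean, cut at about 25% in these data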;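 further: 0% = plate neutral control median and 100% = total signal loss; the record names both 10 and 1 µM as test concentration; the first replicate is given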
# Target sequence (P42568 whole entry, looked up): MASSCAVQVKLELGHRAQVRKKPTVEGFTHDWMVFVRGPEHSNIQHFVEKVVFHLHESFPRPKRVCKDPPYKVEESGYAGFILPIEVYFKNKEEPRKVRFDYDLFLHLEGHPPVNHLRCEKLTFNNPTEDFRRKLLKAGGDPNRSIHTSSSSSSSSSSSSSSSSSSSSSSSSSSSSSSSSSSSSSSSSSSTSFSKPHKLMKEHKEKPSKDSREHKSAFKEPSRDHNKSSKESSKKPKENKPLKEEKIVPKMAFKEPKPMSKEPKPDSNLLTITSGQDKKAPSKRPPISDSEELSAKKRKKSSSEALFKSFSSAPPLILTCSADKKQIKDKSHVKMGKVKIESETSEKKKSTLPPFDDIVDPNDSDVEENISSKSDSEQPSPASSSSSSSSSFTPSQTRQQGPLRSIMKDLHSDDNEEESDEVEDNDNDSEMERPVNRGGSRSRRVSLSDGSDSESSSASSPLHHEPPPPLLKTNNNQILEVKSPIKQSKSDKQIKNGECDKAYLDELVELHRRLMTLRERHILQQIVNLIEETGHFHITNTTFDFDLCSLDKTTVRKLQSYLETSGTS
# FGF22 binding – shifts melting point of recombinant human FGF22 | Q9HCT0 | recombinant FGF22 thermal shift, SYPRO orange fluorescence; percent of sucrose octasulfate shift, DMSO zero | calls only at 9.99 µM | 1.5% of 340,000 active;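 active means melting point raised past a set limit in the mean and every replicate; three in four hits are not shown here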
# Target sequence (Q9HCT0 whole entry, looked up): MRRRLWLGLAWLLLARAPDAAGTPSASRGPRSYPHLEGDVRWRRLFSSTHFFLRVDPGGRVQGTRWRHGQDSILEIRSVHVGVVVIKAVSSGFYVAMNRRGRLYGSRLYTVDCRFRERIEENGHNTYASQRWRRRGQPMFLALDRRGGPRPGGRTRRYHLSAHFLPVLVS
# The depositor's hits bear a star; i = inactive.
structure | AF4-AF9 inh | FGF22 binding
COCCOC(=O)N1C(=O)[C@@]2(c3cc(C#CCC(C(=O)OC)C(=O)OC)ccc31)[C@H](C(N)=O)[C@H]1C(=O)O[C@H](c3ccccc3)[C@H](c3ccccc3)N1[C@@H]2c1ccc(OCCO)cc1 | -0.2 | i
NC(Cc1ccc(F)cc1)c1csc(Nc2nccc(C(F)(F)F)n2)n1 (configuration not stated) | 5.9 | i
O=C(C1CCCC1)N1CCCCN2[C@H](CO)[C@H](c3ccc(C#CC4(O)CCCC4)cc3)[C@H]2C1 | 1.3 | i
CC1(C(=O)NS(=O)(=O)c2ccc(Cl)s2)CCN1C(=O)c1ccccc1CCc1ccccc1 (configuration not stated) | -1.8 | i
CN1OC[C@@H]2CN(S(=O)(=O)c3cccc4ccccc34)[C@H](c3ccc(-c4ccccc4)cc3)C[C@@H]21 | -1.3 | i
CN1C=Nc2c(ncn2C2CCC(CO)O2)C1O (configuration not stated) | -5.5 | i
COCCNc1nc(NCCOc2ccccc2Cl)c2sc(-c3ccccc3)cc2n1 | 5.3 | i
O=C1C=CC(=O)N1c1ccc(Nc2ccccc2)cc1 | 3.5 | i
CS(=O)(=O)N1CCCCC1c1cc(C(=O)NCc2ccc(Cl)c(Cl)c2)no1 (configuration not stated) | -2.6 | i
Cc1ccc(C(c2c(NC(=O)c3ccco3)sc(C)c2C)N2CCOCC2)cc1 (configuration not stated) | 1.3 | i
C/C=C/c1cnc2c(c1)C(=O)N([C@@H](C)CO)C[C@@H](C)[C@@H](CN(C)C(=O)Cc1ccccn1)O2 | -3.4 | i
Cc1c(Cl)cnc(NC(=O)COC(=O)c2cccc(S(=O)(=O)N3CCOCC3)c2)c1Cl | -2.6 | i
COC(=O)c1ccccc1C(=O)c1c(C)cc(C)cc1C | -0.1 | i
CCCCNC(=O)C1c2ccccc2OCC(=O)N1CC(F)(F)F (configuration not stated) | -0.4 | i
COc1ccc(COCC23N=C4SCCCN4[C@H](c4ccccc4O2)[C@H]3CO[Si](C)(C)C(C)(C)C)cc1 | 2.0 | i
Cn1cnc(S(=O)(=O)N[C@@H]2C=C[C@@H](CC(=O)Nc3ccccc3)O[C@@H]2CO)c1 | -2.6 | i
CCCCCCCCN1C(=O)[C@H](CC(=O)N2CCCCC2)C[C@@]2(C(=O)OCC)CCCC=C12 | -16.6 | i
Cc1cc(Nc2ccc(C)c(C)c2)n2ncnc2n1 | -8.0 | i
CC(=O)N1C[C@H]2CON(C)[C@H]2C[C@H]1c1ccc(-c2ccc(C#N)cc2)cc1 | -6.3 | i
CCCC[C@@H](O)C1=C(C)Cn2c(=O)n(-c3ccccc3)c(=O)n2[C@H]1CO | -5.4 | i
NC(N)=NCCCC(N)C(=O)CC(Cc1ccccc1)C(=O)O (configuration not stated) | 2.3 | i
O=c1n(-c2ccccc2)c(=O)n2n1CC(COc1ccccc1)=C([C@H](O)c1ccccc1)[C@@H]2CO | 3.7 | i
CC(OCC(O)CN1CCN(S(=O)(=O)c2ccc(Cl)cc2)CC1)c1ccc(Cl)cc1 (configuration not stated) | -7.0 | i
CCCNC(=O)C[C@@H]1CC[C@H]2[C@@H](COc3ccc(NC(=O)NCC)cc3C(=O)N2C)O1 | -1.4 | i
NS(=O)(=O)c1ccc(CCNC(=O)c2cccc(S(=O)(=O)N3CCc4ccccc43)c2)cc1 | -0.4 | i
COc1ccc(-c2cc(C(F)(F)F)n3nc(C(N)=O)cc3n2)cc1 | -0.8 | i
CN(C)C(=O)c1ccc(-c2ccc([C@H]3[C@H](CO)N4CCCCN(C(=O)C5CCCC5)C[C@@H]34)cc2)cc1 | -5.0 | i
Cc1ccc(S(=O)(=O)N2CCCCC2)cc1NCC(=O)Nc1ccc(Br)cc1F | 2.2 | i
CCOc1cc(N2CCOCC2)c(OCC)cc1NC(=O)C1=COCCO1 | 2.1 | i
CNc1ccc(N=Nc2cccc3ncccc23)cc1 | 3.8 | i

# New compounds follow
structure | AF4-AF9 inh | FGF22 binding
O=C(COc1ccccc1CNC[C@H]1O[C@@H](n2ccc(=O)[nH]c2=O)[C@H](O)[C@@H]1O)N1CCCCC1 | -3.0 | i
C[C@]12CCCC(=O)N1CCc1c2[nH]c2ccccc12 | 0.9 | i
Cc1ccc(Cl)cc1N1CCN(C(=O)c2ccccc2SCC(=O)N2CCCC2)CC1 | 3.2 | i
COc1ccc(C(=O)OCc2cc(=O)oc3c(C)c(C)ccc23)cc1S(=O)(=O)N1CCOCC1 | -4.4 | i
O=C(C1=C[C@@H](C2CC2)C[C@@H](OCc2ccc(CO)cc2)O1)N1CCCC1 | -2.4 | i
O=C(COC(=O)c1c(F)cccc1F)Nc1cccc(S(=O)(=O)N2CCCCC2)c1 | 1.2 | i
COc1ccc(-c2cn(C[C@@H](Cc3ccccc3)NC(=O)Nc3ccccc3)nn2)cc1OC | -0.5 | i
Nc1ccn(CCCNC2CCN(Cc3ccccc3)CC2)c(=O)n1 | -3.1 | i
O=C1NC(Cc2ccccc2)c2nc3cc(Cl)ccc3c(=O)n2-c2ncccc21 (configuration not stated) | -4.1 | i
O=C1c2ccccc2[C@@]2(Cc3ccccc3N(Cc3ccccc3)C2=O)[C@H](c2ccc(CO)cc2)N1C1CCCCC1 | -1.5 | i
O=C1O[C@H](c2ccccc2)[C@H](c2ccccc2)N2[C@H]1[C@@H](C(=O)N1CCN(c3ncccn3)CC1)[C@]1(C(=O)Nc3ccccc31)[C@H]2c1ccc(O)cc1 | -1.4 | i
C[C@H](CO)N1C[C@H](C)[C@@H](CN(C)C(=O)Nc2ccc(C(F)(F)F)cc2)OCCCC[C@H](C)Oc2ccc(NC(=O)NC3CCCCC3)cc2C1=O | -4.9 | i
Cc1ccc(CN2CCC[C@]3(N[C@H](c4ccc(C)cc4)[C@@H]4C(=O)N(Cc5ccccc5)C(=O)[C@@H]43)C2=O)cc1 | -3.1 | i
COc1ccc(-c2coc3c(C(=O)Nc4cccc(C(C)=O)c4)cccc23)c(C)c1 | -7.8 | i
O=[N+]([O-])c1cccc(SSc2cccc([N+](=O)[O-])c2)c1 | -3.4 | i
O=C1NC[C@H](Cc2ccc(O)cc2)N(CCc2cccc(F)c2)C1=O | -0.3 | i
CO[C@@H]1CN(C)C(=O)c2ccc(NC(=O)c3ccccn3)cc2OC[C@@H](C)N(C(=O)C2CC2)C[C@H]1C | -4.4 | i
O=C1NC[C@H](Cc2ccccc2)N(CCc2cc(C(F)(F)F)cc(C(F)(F)F)c2)C1=O | -0.2 | i
C#CCN1C(Cc2ccccc2)C(=O)O[C@H](C2CCCCC2)[C@@H]1/C=C/C1CC1 (some centres not stated) | 0.3 | i
C#CCNC(=O)C1=C[C@@H](c2cn(C(C)=O)c3ccccc23)[C@H](CCCO)[C@@H](OCC)O1 | -1.1 | i
C[C@@H]1CN([C@@H](C)CO)C(=O)c2cccc(NC(=O)c3ccncc3)c2O[C@H]1CN(C)Cc1ccc(Oc2ccccc2)cc1 | 3.2 | i
C[C@@H]1CN([C@@H](C)CO)C(=O)c2cccc(NC(=O)Nc3cccc4ccccc34)c2O[C@H]1CN(C)S(=O)(=O)c1ccccc1 | 1.4 | i
CN1CCCCC1(C)C(=O)NCc1ccc(F)cc1 (configuration not stated) | -2.0 | i
CC(C)c1ccc(NC(=O)Nc2nc(C(C)N)cs2)cc1 (configuration not stated) | 12.9 | i
CSc1nsc(SC)c1-c1ccc(Cl)cc1 | -2.2 | i
C[C@H](CO)N1C[C@H](C)[C@H](CN(C)Cc2ccc(F)cc2)Oc2ncc(-c3cc4ccccc4o3)cc2C1=O | 4.4 | i
CN1CCN(c2ccncc2S(=O)(=O)N2CCCC2)CC1 | 0.3 | i
OC[C@H]1O[C@@H](n2cnc3c(NCc4ccco4)ncnc32)[C@H](O)[C@@H]1O | 11.0 | i
CCCC(=O)N(Cc1cc2cc(OC)ccc2[nH]c1=O)c1ccccc1OC | 0.9 | i
CO[C@@H](CCO)[C@@H](O)c1ccc(O)c(F)c1 | -0.3 | i

# An excerpt of these results, with each value named:
> C[C@@H]1CN([C@@H](C)CO)C(=O)c2cccc(NC(=O)c3ccncc3)c2O[C@H]1CN(C)Cc1ccc(Oc2ccccc2)cc1
- AF4-AF9 inh: 3.2
- FGF22 binding: i
> O=C(COC(=O)c1c(F)cccc1F)Nc1cccc(S(=O)(=O)N2CCCCC2)c1
- AF4-AF9 inh: 1.2
- FGF22 binding: i
> C[C@H](CO)N1C[C@H](C)[C@H](CN(C)Cc2ccc(F)cc2)Oc2ncc(-c3cc4ccccc4o3)cc2C1=O
- AF4-AF9 inh: 4.4
- FGF22 binding: i

# Further results:
structure | AF4-AF9 inh | FGF22 binding
CC(C)Cn1cnc2c(N)nc3ccccc3c21 | 3.6 | i
Cc1ccccc1-c1nc(NCC2CC2)nc2ccsc12 | -2.8 | i
COC(=O)C(CC#Cc1ccc2c(c1)[C@]1(C(=O)N2)[C@H](C(=O)NC[C@H](O)c2ccccc2)[C@H]2C(=O)O[C@H](c3ccccc3)[C@H](c3ccccc3)N2[C@@H]1c1ccccc1OCCO)C(=O)OC | -3.8 | i
CCCCN1C[C@H](c2ccccc2)[C@@H](CC(=O)NC)C1=O | -1.2 | i
COc1ccc(NS(=O)(=O)c2cccc(C(=O)N3CCOCC3)c2)cc1 | -1.5 | i
CCCCC(CC)CO (configuration not stated) | -5.1 | i
COc1cccc(NC(=O)C2(C)CCCN2C(=O)C(C)C)c1 (configuration not stated) | -7.3 | i
CC1CCCCC12NC(=O)N(CC(=O)N1CCN(C(=O)c3cccs3)CC1)C2=O (configuration not stated) | -1.2 | i
Nc1nc2c(ncn2[C@@H]2O[C@H](CNS(=O)(=O)C3CC3)[C@@H](O)[C@H]2O)c(=O)[nH]1 | 0.1 | i
COC(=O)c1cn(CCNC(=O)Nc2ccccc2)nn1 | 3.8 | i
CCCc1nc2ccc(Cl)cn2c1Cc1ccccc1 | 2.2 | i
O=C(C1=C[C@@H](c2ccc3c(c2)Cc2ccccc2-3)C[C@@H](OCCCCO)O1)N1CCCCC1 | -0.7 | i
Cc1ccc(-c2cnc3c(c2)C(=O)N([C@@H](C)CO)C[C@@H](C)[C@H](CN(C)Cc2ccccc2F)O3)cc1 | 9.6 | i
COc1ccc([Si](C)(C)[C@H]2[C@H](CCO)O[C@@]3(C(=O)N(c4ccccc4)c4ccccc43)[C@@H]2C)cc1 | -0.5 | i
CC1CC2CCCC(O)=C2C(=O)O1 (configuration not stated) | -2.1 | i
Cc1noc(C)c1CCC(=O)Nc1cc(C(=O)O)ccc1Cl | 2.8 | i
CCCCC(=O)N(C)c1c(C)nc2ccc(C(=O)N(C)Cc3ccco3)cn12 | -2.0 | i
O=C1NC[C@H](Cc2ccc(O)cc2)N(CCc2cc(C(F)(F)F)cc(C(F)(F)F)c2)C1=O | 2.4 | i
CCO[C@H]1OC(C(=O)N2CCOCC2)=C[C@@H](C2CCCCC2)[C@@H]1CCCO | -1.8 | i
CCCCN(C=O)c1c(CC)nc2c(OCc3ccccc3C(=O)OC)cccn12 | -7.1 | i
CCOC(=O)Nc1ccc(S(=O)(=O)N2CCC(c3nc4ccccc4[nH]3)CC2)cc1 | -2.0 | i
CC1(C)OC(C)(C)C(=N/O)/C1=N\N | -4.6 | i
CN(Cc1ccccc1)C(=O)c1[nH]c(C(F)(F)F)nc1-c1ccccc1 | -5.7 | i
O=C(Nc1ccc(F)cc1)N1CCCCN2[C@@H](CO)[C@@H](c3ccc(-c4ccccc4F)cc3)[C@@H]2C1 | 7.8 | i
C=CCn1c(SCC(=O)Nc2c(C)n(C)n(-c3ccccc3)c2=O)nnc1-c1ccncc1 | 0.4 | i
C[C@H](CO)N1C[C@H](C)[C@@H](CN(C)Cc2ccccc2C(F)(F)F)OCc2ccccc2-c2ccccc2C1=O | 3.4 | i
Cc1ccc(-c2ccc([C@@H]3[C@H]4CN(S(=O)(=O)c5cccc(C)c5)CCCCN4[C@H]3CO)cc2)cc1 | -9.0 | i
CC(C)N1C(=O)[C@@]2(Cc3ccccc31)c1ccccc1C(=O)N(Cc1ccccc1Cl)[C@H]2c1ccc(CO)cc1 | -11.6 | i
Cc1noc(C)c1S(=O)(=O)Nc1ccc2c(c1)C(=O)N([C@H](C)CO)C[C@H](C)[C@H](CN(C)C(=O)Nc1ccc(C(F)(F)F)cc1)O2 | -2.0 | i
COC(=O)c1ccc2nc(-c3ccc(OC)c(OC)c3)c(Cc3ccccc3)n2c1 | -6.2 | i

# Full records, quoted from the list. Order of values: AF4-AF9 inh	FGF22 binding
# COC(=O)c1ccc2nc(-c3ccc(OC)c(OC)c3)c(Cc3ccccc3)n2c1 as listed: -6.2	i
# O=[N+]([O-])c1cccc(SSc2cccc([N+](=O)[O-])c2)c1 as listed: -3.4	i
# CCOc1cc(N2CCOCC2)c(OCC)cc1NC(=O)C1=COCCO1 as listed: 2.1	i
# CC(OCC(O)CN1CCN(S(=O)(=O)c2ccc(Cl)cc2)CC1)c1ccc(Cl)cc1 (configuration not stated) as listed: -7.0	i
# CO[C@@H](CCO)[C@@H](O)c1ccc(O)c(F)c1 as listed: -0.3	i

# New compounds follow
structure | AF4-AF9 inh | FGF22 binding
COCC#Cc1ccc([C@@H]2[C@@H](CO)N3CCCCN(S(=O)(=O)c4ccccc4F)C[C@H]23)cc1 | 5.5 | i
CN(C)C(=O)C[C@H]1C=C[C@@H](NC(=O)c2ccc(F)cc2)[C@@H](CO)O1 | -2.4 | i
COc1ccc([Si](C)(C)[C@H]2[C@H](CCO)O[C@@]3(C(=O)N(Cc4cccc(NC(C)=O)c4)c4ccccc43)[C@@H]2C)cc1 | 3.0 | i
C[C@@H]1CN([C@@H](C)CO)C(=O)c2cc(NC(=O)Nc3ccc4c(c3)OCO4)ccc2O[C@@H]1CN(C)Cc1ccc(C(F)(F)F)cc1 | 6.0 | i
COC(=O)c1cc(=O)nc(NN=Cc2ccccc2)s1 | -1.1 | i

# Assay outcomes (PubChem BioAssay)

# This is a subset. The share of hits here may be higher or lower than overall.
